Compound activity from PubChem.
ALR H2O2 inh: inhibitors of human sulfhydryl oxidase ALR | purified ALR, DTT oxidation, H2O2 HRP-luminol luminescence | actives 3.8% (n = 290,000) | AID 485317 | inhibition, % (no concentration beside the values) | P55789;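 active = mean and each replicate at 75% or more; inconclusive = only one of the two met; inactive = neither met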;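 also: stock transfer was 7.5 nL into about 7.5 µL; 0% = neutral wells and 100% = wells with inactivated enzyme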
Target sequence (P55789 whole entry, looked up): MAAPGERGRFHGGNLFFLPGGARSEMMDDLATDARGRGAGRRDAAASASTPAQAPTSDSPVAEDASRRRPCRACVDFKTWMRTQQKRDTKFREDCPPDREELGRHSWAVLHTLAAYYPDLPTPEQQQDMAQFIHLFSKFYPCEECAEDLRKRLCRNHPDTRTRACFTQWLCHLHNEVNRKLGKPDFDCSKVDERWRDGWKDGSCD
Beta apoptosis: blocks beta cell apoptosis | protection from apoptosis, % (no concentration beside the values) | INS-1E cytokine-induced death, ATP luminescence, 48 h; percent of positive-control rescue, neutral wells zero | AID 435005 | actives 0.8% (n = 300,000);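 active = all replicates at 75% or more, or half of them and the mean; inconclusive = half reach 75% but not the mean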;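 also: 0% = cytokine-treated negative control wells and 100% = positive control rescue; higher means more ATP so stronger rescue from cytokine killing; wells of about 40 µL received 100 nL stock; the first replicate is given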
T cruzi repl: blocks replication of Trypanosoma cruzi | actives 1.4% (n = 300,000) | inhibition, % (no concentration beside the values) | T. cruzi beta-gal in NIH3T3, luminescence, 90 h;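 active = mean inhibition across valid replicates above about 55%, limit read from the data; inconclusive = mean below that limit but half or more replicates reach it; inactive = mean below it, under half of replicates reach it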;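 also: signal also drops with host cell toxicity which is not excluded here; 0% = plate median of DMSO wells and 100% = zero luminescence signal; higher percent means less beta-gal luminescence so fewer parasites; stock transfer was 50 nL into about 50 µL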
Calb FLC: C. albicans growth modulation with fluconazole | C. albicans CaCi-2 (fluconazole-resistant clinical isolate) + fluconazole, Alamar Blue growth, 48 h | growth inhibition, % (no concentration beside the values) | actives 0.57% (n = 300,000);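 active = most replicates above 75%; inconclusive = exactly half above 75%; inactive = most below 75%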;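 also: all wells also contain fluconazole at 8 µg/ml as a sub-toxic cotreatment; 0% = median of DMSO wells and 100% = median of geldanamycin control wells; wells of about 8 µL received 7.5 nL stock; the first replicate is given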
B2AR ag: human beta-2 adrenergic receptor agonism by FAP; P07550; Am2.2-beta2AR cells, FAP receptor internalization, flow cytometry; reference of the scale not given here; response, % (test concentration not listed); actives 0.43% (n = 340,000); AID 504454;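 active = response above a set limit, near 3 SD of response in nonfluorescent compounds, cut at about 42% in these data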;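 also: stock transfer was 100 nL into about 11 µL; a reference agonist was the positive control; negative values mostly stem from fluorescent compounds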
Target sequence (P07550 whole entry, looked up): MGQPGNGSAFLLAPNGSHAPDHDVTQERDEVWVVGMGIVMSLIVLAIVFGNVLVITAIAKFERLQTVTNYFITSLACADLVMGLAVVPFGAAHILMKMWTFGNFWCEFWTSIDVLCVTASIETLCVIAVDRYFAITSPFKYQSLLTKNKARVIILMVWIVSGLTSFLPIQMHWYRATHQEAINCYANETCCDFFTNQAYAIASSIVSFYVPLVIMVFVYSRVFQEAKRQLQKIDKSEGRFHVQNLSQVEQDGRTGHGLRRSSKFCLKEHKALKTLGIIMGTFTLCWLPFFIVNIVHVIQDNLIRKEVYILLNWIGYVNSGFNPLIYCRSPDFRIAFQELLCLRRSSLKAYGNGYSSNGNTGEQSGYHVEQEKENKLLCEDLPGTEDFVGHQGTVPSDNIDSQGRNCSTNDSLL
LANA-H2A inh: blocks KSHV LANA binding to histone H2A/H2B. Q9QR71. cell-free LANA-H2A/H2B peptide, fluorescence polarization. inhibition, % (concentration not given with the values). actives 0.6% (n = 320,000). AID 2629; in the data active = inhibition mostly above about 10%, no sharp cut-off; inactive = mostly below about 6.7%;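 also: stock transfer was 7.5 nL into about 10 µL; 0% = median of vehicle wells and 100% = median of positive control wells; one replicate is shown; the record names a cut of 25% in any replicate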
rRNA inh HTS: inhibits bacterial ribosomal RNA function over humanized ribosomes | E. coli WT GFP vs humanized-ribosome RFP mutants, fluorescence, 24 h; hits give low values; DMSO median 0, no signal -100 | GFP signal change (wild-type ribosome), % (test concentration not listed) | actives 1.6% (n = 350,000) | AID 720706;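 active = significant combined selectivity score with lowered wild-type GFP, culture density cut under 30%, mutant RFP and density less affected; inactive = any of these conditions unmet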; also: one replicate is shown; some compounds called inactive have numbers as strong as hits
Bfl-1 A1 inh: inhibitors of the anti-apoptotic protein A1, read as caspase activation. MEF A1-2A-BIM cells, Caspase-Glo 3/7 luminescence, 3 h; percent of clofoctol response, vehicle zero. caspase activation, % (test concentration not listed). actives 0.066% (n = 330,000);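 active = over half of replicate activation scores above 10%, or exactly half above 10 with the replicate mean above 10; inconclusive = replicate mean below 10 yet half the replicates above 10; inactive = over half of replicates below 10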;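 also: wells of about 30 µL received 50 nL stock; many hits fall short of the cut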
rRNA inh HTS OD600: recorded beside rRNA inh HTS, whose call it bears; OD600 change, %; measured here: OD600 growth;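 optical density of the mix in the first replicate; 0 = DMSO median and -100 = no signal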
rRNA inh HTS RFP: second read-out of rRNA inh HTS, no call of its own (marks repeat the call); RFP signal change, %; measured here: RFP humanized mutant strains;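 first replicate; 0 = DMSO median and -100 = no signal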
Starred values were filed as active, the others as inactive; ? = inconclusive; nt = not tested or not shown; + = active, no number.

SMILES	ALR H2O2 inh	Beta apoptosis	T cruzi repl	Calb FLC	B2AR ag	LANA-H2A inh	rRNA inh HTS	rRNA inh HTS OD600	rRNA inh HTS RFP	Bfl-1 A1 inh
O=C(NNC(=O)c1cccc2ccccc12)c1ccc2c(c1)OCO2	-1	1	4	-5	-2	3.7	8	9	-0.1	-0.7
COC(=O)c1ccc(/C=C(\C#N)C(=O)NC(C)c2ccccc2)cc1 (centres undefined)	87*	-3	8	19	15	4.0	-4	-3	-0.5	0.6
Oc1c(Cl)cc(Cl)cc1C=Nc1ccc2c(c1)OCCO2	-5	-3	-5	-29	9	0.2	nt	nt	nt	0.5
NS(=O)(=O)c1ccc(N/C=C\C(=O)c2ccncc2)cc1	3	-4	1	-17	3	-1.4	2	5	0.9	-1.3
Cc1ccc(C)c(-c2cc(C(=O)NC3CC3)c3ccccc3n2)c1	94*	7	nt	30	-9	4.2	-1	-7	-4.2	0.5
O=C(c1ccc(CS(=O)Cc2ccc(Cl)cc2)o1)N1CCN(c2ccc(F)cc2)CC1 (centres undefined)	39	6	1	0	-8	1.3	-14	-41	-4.7	0.9
CCCCc1ccc(N2C(=NC(=O)C3CCCO3)SC3CS(=O)(=O)CC32)cc1 (centres undefined)	-4	5	3	-3	-6	2.1	3	4	-2.0	0.2
COc1ccc(-c2cc(C(F)(F)F)n3nc(C(=O)NCc4ccco4)cc3n2)cc1OC	2	6	41	11	16	0.4	nt	nt	nt	-0.1
CN(C)S(=O)(=O)Nc1ccc(NS(=O)(=O)N(C)C)c(S(=O)(=O)c2ccccc2)c1	43	0	-2	-9	-5	-0.3	nt	nt	nt	0.1
COc1cc(/C=N/NC(=O)c2csc3c2CCCC3)ccc1OCCN1CCOCC1	-2	3	-10	32	-1	-0.3	0	5	5.2	0.3
Cc1ccc(C#N)c(SCc2cccc(Br)c2)n1	-2	-1	3	-1	-9	-7.0	nt	nt	nt	0.0
COc1ccc(CCN2C(=S)N(c3ccccc3)C(=O)C2CC(=O)O)cc1OC (centres undefined)	nt	-8	-4	-8	1	-4.0	5	2	-0.7	0.2
O=C(C1=C[C@H](c2ccccc2)C[C@H](OCCCCO)O1)N1CCOCC1	-2	-6	-9	-1	0	6.0	10	13	-3.2	0.3
CC12CCC(C(=O)NCc3ccco3)(OC1=O)C2(C)C (centres undefined)	5	0	3	43	-2	-0.4	6	7	-4.2	1.1
COc1ccccc1CN1CCC(CNS(=O)(=O)c2cc(-c3onc(C)c3C)ccc2OC)CC1	0	0	35	-3	11	-7.6	-2	-11	0.3	0.6
COc1ccc(OC)c(CCNC(=O)Cn2nc(C)c3c(C)n(-c4ccccc4)nc3c2=O)c1	-2	-1	14	2	10	13	15	11	0.8	-0.4
CCOC(=O)c1sc(NC(=O)C2=COCCO2)c(C#N)c1C	nt	6	1	55	-2	nt	-1	-2	-1.2	0.9
COc1cc(/C=C2/C(=N)N3C=CSC3=NC2=O)ccc1OCCCOc1c(C)cccc1C	-28	8	14	?	12	0.6	3	6	33	0.1
CCOc1ccc(NC(=O)CN2C(=O)NC3(CCCCCC3)C2=O)cc1	nt	-3	nt	nt	-15	2.5	-1	1	-0.2	0.5
O=C(CCc1ccccc1)OCC(=O)c1ccc([N+](=O)[O-])cc1	-2	1	0	3	1	1.1	6	5	-3.3	0.2
COc1ccc(C(CNC(=O)C(Cc2ccccc2)NC(N)=O)N(C)C)cc1 (centres undefined)	nt	-2	-8	-1	-9	-1.9	16	12	1.9	-0.1
Cc1ccc([C@@H]2[C@@H]3C(=O)N(c4ccccc4)C(=O)[C@@H]3[C@]3(C)C(=O)N(Cc4ccccc4)CC(=O)N23)o1	1	-1	12	-3	5	-0.3	0	16	-9.1	1.1
COc1cc2ncnc(NCc3ccc(F)cc3)c2cc1OC	-1	7	13	6	5	4.0	-12	-14	-5.7	3.6
COc1ccc(C(=O)N2CCOC2CNC(=O)C(=O)NCc2ccco2)cc1 (centres undefined)	-2	-6	-5	9	0	+	14	3	-13	0.2
CC(=O)Nc1ccc(C(=O)COC(=O)c2cc(C)oc2C)c(F)c1	nt	2	nt	nt	7	-0.6	-25	-24	2.0	0.4

Additional structures
SMILES	ALR H2O2 inh	Beta apoptosis	T cruzi repl	Calb FLC	B2AR ag	LANA-H2A inh	rRNA inh HTS	rRNA inh HTS OD600	rRNA inh HTS RFP	Bfl-1 A1 inh
CCOc1ccccc1OC(=O)CN1C(=O)c2ccccc2C1=O	26	nt	-12	-5	7	-6.1	7	-12	-0.5	0.0
CCN1C(=O)CC(N2CCC(c3nc4ccccc4[nH]3)CC2)C1=O (centres undefined)	-34	-6	-4	11	1	-1.7	17	13	-3.2	0.1
O=C(NCCc1ccccc1)C1c2ccccc2C(=O)N1C1CC1 (centres undefined)	-4	-6	-12	-18	9	3.0	nt	nt	nt	0.3
Cc1ncc(CO)c(/C=N/N=C/c2ccccc2O)c1O	-2	0	-12	?	-1	-3.6	nt	nt	nt	-4.3
COC(=O)/C=c1\sc2n(c1=O)C(C)=CC(C)(C)N=2	-7	nt	-13	-4	10	0.8	nt	nt	nt	0.2
COC(=O)c1ccc(Cl)c(NC(=O)Cc2ccccc2[N+](=O)[O-])c1	-7	-2	-2	10	4	3.1	18	14	1.4	0.5
CN(C)c1ccc(C=C(c2nnnn2-c2ccccc2)c2nnnn2-c2ccccc2)cc1	4	5	15	16	36	-6.2	nt	nt	nt	0.4
COC(=O)Nc1ccc(S(=O)(=O)N2CCC(C(=O)N3CCC(C)CC3)CC2)cc1	nt	-5	7	-18	1	-2.0	4	13	0.5	0.7
Nc1cc(=O)[nH]c(SCC(=O)Nc2ccc([N+](=O)[O-])cc2)n1	nt	nt	4	3	2	nt	3	0	5.6	nt
CCc1nc2nc(C)cc(Nc3cccc(C(F)(F)F)c3)n2n1	nt	13	-11	-7	-12	nt	nt	nt	nt	0.1
COc1cccc(CN2CCN(C(=O)c3cccs3)CC2)c1OC	3	-3	-6	0	-4	5.9	nt	nt	nt	1.1
CC(C)CNS(=O)(=O)c1ccc(C(=O)Nc2ccc3c(c2)OCO3)cc1	-3	-6	-4	9	-9	15	6	3	3.4	0.4
CCOC(=O)C1=C(C)OC(N)=C(C(=O)OCC)C1c1ccncc1 (centres undefined)	0	2	0	-6	8	3.0	nt	nt	nt	-0.8
CCOc1ccc(CCNC(=O)C2CCCN(S(=O)(=O)N3CCOCC3)C2)cc1OCC (centres undefined)	nt	nt	10	3	3	nt	2	7	-0.6	nt
CC(C)(C)CN1C(=O)C(=O)NC[C@H]1Cc1ccc(O)cc1	36	0	-6	-7	2	0.0	2	6	-11	0.6
COc1ccc(OC)c(-c2cc(C(=O)N/N=C(\C)c3cccnc3)c3ccccc3n2)c1	17	2	35	?	-7	-3.7	0	4	0.7	-0.4
CCN(CC)CCn1c(=S)[nH]c2ccc(Cl)cc2c1=O	89*	1	-10	-18	-1	-1.8	nt	nt	nt	0.4
O=C(CSc1nnc(CCc2ccccc2)n1-c1ccc(Cl)cc1)c1ccccc1	9	9	7	0	-6	-6.7	nt	nt	nt	-0.3
O=C(CSc1ccc(-c2nc3ccccc3[nH]2)cn1)Nc1ccc2c(c1)OCCO2	-3	19	20	-8	11	-0.1	nt	nt	nt	-2.1
COc1ccc(OC)c(/C=C2\SC(=S)N(N3CCOCC3)C2=O)c1	-3	-6	-12	18	4	8.0	8	7	1.0	0.2
CN1CCN(/C=N/c2c(C#N)cnn2Cc2ccccc2)CC1	1	-5	34	-23	0	-4.3	nt	nt	nt	-0.2
S=c1[nH]nc(-c2ccccc2)n1/N=C/C=C/c1ccco1	97*	nt	-8	18	-10	3.2	8	18	9.6	-0.7
NC(=O)SCC(=O)Nc1ccc(Cl)c(Cl)c1	98*	-40	nt	nt	8	1.3	nt	nt	nt	2.1
COc1ccccc1-n1c(-c2ccc(F)cc2)coc1=O	-3	-2	-14	-23	-3	-0.1	nt	nt	nt	-0.6
Cc1cc(C)c(C)c(S(=O)(=O)NCCCn2ccnc2)c1C	-1	1	-5	1	-10	0.1	0	-2	2.1	0.0

(cont.)
SMILES	ALR H2O2 inh	Beta apoptosis	T cruzi repl	Calb FLC	B2AR ag	LANA-H2A inh	rRNA inh HTS	rRNA inh HTS OD600	rRNA inh HTS RFP	Bfl-1 A1 inh
CC(=O)c1ccc(NC(=O)C2(c3ccccc3)CC2(Cl)Cl)cc1 (centres undefined)	-4	2	nt	50	12	-1.6	-4	-5	4.3	0.9
CC(C)Cn1c(CN2C(=O)c3ccccc3C2=O)nc2ccccc2c1=O	2	-10	-3	0	-5	-1.1	nt	nt	nt	0.2
COc1ccc(/C=C/C(=O)OCC(=O)c2ccc3c(c2)NC(=O)CO3)cc1	0	1	5	-10	7	-3.1	7	7	2.2	-0.2
O=[N+]([O-])c1ccc(OCC(O)CNC2CCCC2)cc1 (centres undefined)	2	2	14	4	-11	1.5	2	-2	2.7	1.4
c1ccc2oc(Cc3ccc(Cc4nc5ccccc5o4)cc3)nc2c1	nt	5	3	0	10	-3.4	nt	nt	nt	1.1
COc1cccc(CNC(=O)CSc2nnc3c(n2)[nH]c2ccccc23)c1	-3	-2	0	5	0	3.2	7	4	-1.2	0.2
CCn1cc(C(=O)O)c(=O)c2cnc(N3CCN(C(=S)NC(=O)c4ccc(Br)cc4)CC3)nc21	-1	-8	16	1	nt	-0.2	nt	nt	nt	0.8
O=[N+]([O-])c1cc(Br)c(O)c(/C=N/Nc2nc3ccccc3s2)c1	nt	nt	-38	-37	32	nt	-27*	-18*	3.7*	nt
Cc1onc(-c2c(F)cccc2Cl)c1C(=O)ONC(=O)c1ccco1	-5	-11	-12	3	6	-2.5	7	7	-0.7	1.3
COc1ccc(C(=O)N/N=C/c2ccc(OC)c(OS(=O)(=O)c3ccccc3)c2)cc1	1	3	18	2	13	1.0	-25	-25	1.8	0.0
O=c1[nH]c2ccccc2n2c(-c3ccccc3)nnc12	nt	-1	-14	-1	20	9.4	nt	nt	nt	-1.9
CCOC(=O)c1cccc(NC(=O)c2cccnc2)c1	6	3	-5	29	-2	-5.5	nt	nt	nt	0.0
COc1cc(C(=O)Nc2cc(C)nn2-c2ccccc2)cc(OC)c1OC	-25	2	-7	2	8	0.5	-5	-1	-4.4	0.9
CCOc1ccccc1NC(=O)c1cccc(NC2=NC3CS(=O)(=O)CC3S2)c1 (centres undefined)	5	-8	-17	-6	-2	-0.8	10	8	0.8	-0.1
CN1CC(=O)Nc2ccc(Br)cc2C1=O	-3	nt	-6	-7	6	-2.1	12	4	9.7	-0.9
Cc1cc(C)cc(NC(=S)NCCCO)c1	-24	1	-18	-1	2	-13	5	9	2.0	0.5
CC(=O)c1cccc(NC(=O)c2ccccc2N(Cc2ccccc2)S(C)(=O)=O)c1	-9	2	-2	4	-5	2.5	-5	-4	1.6	0.3
CCN(CC)CCNC(=O)c1ccc(CS(=O)(=O)c2ccccc2C)o1	nt	-3	-14	-6	-5	-1.8	9	10	-0.2	1.8

This is a subset; the hit share may differ from the screen's.
